Screening data (PubChem BioAssay)
PABP FP inh: PABP-poly(A) binding inhibition; AID 2014; PABP-poly(A) RNA binding, fluorescence polarization; inhibition, % at 35 µM; 290,000 compounds, 1% hits; P11940;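 active means 50% or more with normal probe brightness, or confirmed in later tests; inconclusive means above 50% with abnormal brightness, or retests that disagree; inactive means below 50% or failed in later tests; about a fifth of its hits are not listed in these tables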;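 further: calls also rest on retests at 20 µM and on dose response follow-up; controls were probe without protein and protein plus probe with vehicle; some compounds called inactive have numbers as strong as hits; many hits fall short of the cut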
Rce1 inhib: yeast Ras-converting enzyme inhibition; yeast membranes, quenched prenylated peptide cleavage fluorescence; AID 2563; 290,000 compounds, 0.27% hits; Q03530; calls only;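 active means fall in fluorescence gain of 50% or more versus controls, with final raw signal at or below 3038400; inconclusive means same 50% fall but final raw signal above 3038400; inactive means fall in fluorescence gain under 50%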;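 further: plate controls were neutral control wells for no effect and wells lacking membranes for full effect; tested at 10 µM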
Target sequence (Q03530 whole entry, looked up): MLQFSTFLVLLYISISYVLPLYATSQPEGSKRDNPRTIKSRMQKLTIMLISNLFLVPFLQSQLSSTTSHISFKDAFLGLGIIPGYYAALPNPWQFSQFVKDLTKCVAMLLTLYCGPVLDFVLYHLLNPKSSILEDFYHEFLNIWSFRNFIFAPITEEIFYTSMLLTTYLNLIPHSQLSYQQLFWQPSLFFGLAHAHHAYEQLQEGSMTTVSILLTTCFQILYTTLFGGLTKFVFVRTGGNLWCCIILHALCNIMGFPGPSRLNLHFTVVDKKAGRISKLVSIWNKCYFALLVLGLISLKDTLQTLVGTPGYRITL
CSC inhib: cancer stem cell inhibition; cancer stem cell-like cells viability, luminescence; 300,000 compounds, 1.1% hits; AID 2717; inhibition, % at 7.5 µM;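 active means mean at 75% or more and at least half the replicates too; inconclusive means mean and replicates disagree; tested in HMLE shEcad cells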;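 further: 0% = median of negative and 100% = median of positive control wells; the first replicate is given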
Env fusion inh: blocks HIV Env-driven cell-cell fusion. inhibition, % at 12.3 µM. 360,000 compounds, 1.1% hits. HeLa-JRFL Env/CEM21 cell fusion, luciferase;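 active means mean replicate inhibition score of at least 50 and every replicate individually at or above 50; inconclusive means only one of the two criteria met; inactive means mean below 50 and not all replicates reaching 50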;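 further: 0% = plate neutral controls and 100% = maraviroc near 300 nM; one replicate is shown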
eIF4H FP inh: inhibitors of RNA binding by human eIF4H. 290,000 compounds, 0.94% hits. Q15056. eIF4H fluorescence polarization binding assay. inhibition, % at 35 µM;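 active means 50% or more with normal probe brightness, or confirmed in later tests; inconclusive means above 50% with abnormal brightness, or retests that disagree; inactive means below 50% or failed in later tests; about a fifth of its hits are not listed in these tables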;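 further: calls also rest on retests at 20 µM and on dose response follow-up; 0% = protein and probe with vehicle and 100% = probe without protein; strong numbers were not always called active; many hits fall short of the cut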
MT1-MMP act inh: inhibitors of human MT1-MMP activation; 360,000 compounds, 0.061% hits; HT1080 RFP-PRO-GFP cells, GFP/RFP ratio fluorescence, overnight; percent of plate control window, DMSO zero; P50281; GFP/RFP ratio change, % at 20 µM; AID 651647;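 active means GFP/RFP ratio change of at least 30% with cell ATP level not reduced by more than half and red fluorescence within 50% of control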; further: strong numbers were not always called active
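Assay system: HT1080 cells carrying an RFP-PRO-GFP reporter | Dosing: Single dose of 20 µM compound, 1% DMSO final | Incubation: Cells overnight before dosing, compound overnight, 37 °C, 5% CO2 | Evaluation: GFP/RFP fluorescence ratio | Control set: DMSO and RFP-L50D-GFP cell wells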
UUG fidelity: yeast start codon fidelity modulation; AID 602363; S. cerevisiae UUG-firefly luciferase reporter, luminescence/redox ratio; activity score, % at 18.7 µM; 350,000 compounds, 0.13% hits;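 active means replicate mean at a twofold rise or more, about +100% in these data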;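 further: firefly luciferase made from a UUG start codon reports start codon fidelity; reporter light over untreated wells divided by growth signal over untreated wells; some hits fall short of that in this replicate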
eIF4H FP inh retest: also measured in eIF4H FP inh; calls as there; inhibition, %; compound at 20 µM; confirmation average;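 mean of two retest wells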
PABP FP inh retest: also measured in PABP FP inh; calls as there; inhibition, %; compound at 20 µM; confirmation repeats;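 mean of two retest wells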
MT1-MMP act inh RFP: also measured in MT1-MMP act inh; calls as there; RFP signal change, %; measured here: RFP expression control read;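 0 = vehicle wells; hits needed this value within 50% of zero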
* hit, by the source's call; i = inactive; ? = inconclusive; / = not tested or not shown.

SMILES	PABP FP inh	Rce1 inhib	CSC inhib	Env fusion inh	eIF4H FP inh	MT1-MMP act inh	MT1-MMP act inh RFP	UUG fidelity	others
COc1cc(C(=O)Nc2nnc(CC(=O)N3CCOCC3)s2)cc(OC)c1OC	7	i	-6	11	-9	4	1	-13
O=C(O)c1cccc(-n2cccc2/C=C\[N+](=O)[O-])c1	58*	i	1	14	99	1	10	/	eIF4H FP inh retest=29;PABP FP inh retest=58*
O=C(O)CSc1sc(=S)sc1SCC(=O)O	2	i	-7	/	13	9	6	-26
CSc1ccc(S(=O)(=O)NCC(=O)OC2CCOC2=O)cc1[N+](=O)[O-] (stereo not given)	/	i	-1	-5	/	4	6	0
CCS(=O)(=O)N1CCC(C(=O)NCCN2CCN(Cc3ccccc3)CC2)CC1	-2	i	-6	/	6	1	0	-19
Cc1cccn2c(=O)nc(SCC(=O)N3CCC(C)CC3)nc12	/	i	5	-14	/	4	1	-11
CC(CNC(=O)c1cc(Cl)ccc1[N+](=O)[O-])NC(=O)c1cc(Cl)ccc1[N+](=O)[O-] (stereo not given)	-7	i	1	-40	-12	5	4	6
Fc1ccc(Oc2ccnc(Cl)n2)c(Cl)c1	/	i	-5	4	/	/	/	/
CCc1nnc(NC(=O)CN2CCCC(C)C2)s1 (stereo not given)	0	i	-18	-41	-7	0	-1	-21
O=C(Oc1coc(CSc2nnc(NC(=O)c3cccs3)s2)cc1=O)c1ccccc1	4	i	86*	-20	21	2	1	-28
CCCN1CCC(=NNC(=O)c2ccc(Br)o2)CC1	-9	i	-9	/	2	8	0	-23
CC1Cc2ccccc2N1C(=O)Cn1c(=O)oc2cc(S(=O)(=O)N3CCCCC3)ccc21 (stereo not given)	4	i	-7	2	-16	3	1	-9
CC(C)CCn1c(SCCc2ccccc2)nc2c1c(=O)[nH]c(=O)n2C	3	i	-4	/	3	3	-7	-9
Cc1ccc(NC(=O)c2cc(-n3cnnc3)ccc2Cl)cc1	4	i	-6	-5	-8	0	-4	-21
Cc1ccc(CC(=O)N2CCN(C(=O)C3CCCO3)CC2)cc1 (stereo not given)	-9	i	2	5	-7	1	1	-11
O=C1CNC(c2ccccc2)C(c2ccccc2)N1 (stereo not given)	/	/	/	-6	/	-3	2	-14
Cc1ccc(C(=O)c2ccc([N+](=O)[O-])cc2)c(C)c1	4	i	-9	/	4	-5	-4	-9
CCOc1ccccc1-n1c(CNc2ccc(F)cc2)nnc1SCC(=O)NCc1ccco1	3	i	-2	/	10	1	1	-11
COc1ccc(/C=N/NC(=O)CCOc2ccccc2C)cc1OC	1	i	9	13	6	-1	0	/
COc1ccc([C@H]2/C=C\CN(C(=O)c3ccc(C)cc3)[C@@H](C)C(=O)N2Cc2ccc(F)cc2)cc1	/	i	/	28	/	-6	-12	14
COc1cc(NC(=O)Nc2cccc3cccnc23)cc(OC)c1OC	-6	i	/	5	-13	6	1	-9
CN(C)CCCNc1nc2sc3c(c2c(=O)n1CCc1ccccc1)CCCCC3	-2	i	10	27	-7	-8	-8	/
CCCCc1c(C)nc2c(OC)cccc2c1SCCC(=O)O	16	i	-3	-12	-6	1	-1	/
CC12CCC(C(=O)N(CC(O)CN3CCN(Cc4ccccc4)CC3)C1=O)C2(C)C (stereo not given)	23	i	11	5	17	1	-1	102*
Cc1ccc(C)c(Oc2coc3cc(OCC(=O)Nc4ccccc4C(C)C)ccc3c2=O)c1	7	i	25	/	-7	/	/	/
Cc1nc(Cc2nnc(SCC(=O)Nc3c(C)cccc3C)o2)cs1	/	i	/	-31	/	0	0	/
Cc1ccc(NC(=O)c2ccc(CSc3nnc(C)s3)cc2)cc1	8	i	-3	/	-16	-1	-10	-13
COc1cc(-c2nnc(-c3ccncc3)o2)ccc1OCc1ccccc1	-7	/	22	8	-5	4	-10	-8
O=C(Nc1ccccc1)NC1(C(=O)NCc2ccc3c(c2)OCO3)CCCCC1	24	i	-2	-3	76	0	2	-7	eIF4H FP inh retest=25;PABP FP inh retest=48
CCN(CC)CCOc1ccc2c(c1)C(=NNC(=O)c1ccccn1)c1cc(OCCN(CC)CC)ccc1-2	121	i	28	-14	-3.0*	9	6	/	eIF4H FP inh retest=84*;PABP FP inh retest=44
CN1CCN(C(=S)Nc2cccc(Cl)c2)CC1	-12	i	-7	/	-2	1	4	/
CCOc1ccccc1NC(=O)CSCC(=O)Nc1ccccc1	-6	i	-4	-12	1	0	-5	-11
CCCc1cc(=O)oc2c(CN(CC)CC)c(O)c(Cl)cc12	4	?	10	6	10	9	4	-9
Cc1ccc(C)c(N2CCN(C(=O)CCCn3c(=O)c4cccn4c4cccnc43)CC2)c1	2	i	11	-1	-8	-1	-6	-15
Cc1cccnc1C(NC(=O)C1CCN(CCCOc2ccc(F)cc2)CC1)c1ccccc1 (stereo not given)	/	/	/	-5	/	-2	1	-12
Cc1cc(NC(=O)c2cnn3c(C(F)F)cc(C4CC4)nc23)no1	2	i	-2	/	-2	-4	3	-4
O=C1CCC[C@@H]2Cc3nc4cc5c(cc4cc3[C@@H]3CCN1[C@H]23)OCO5	/	/	/	-34	/	-4	3	-15
CC(C)c1ccc(OCC(=O)N2CCCCCC2)c(Br)c1	5	i	0	-4	4	-1	0	/
CCCCNC(=O)CCn1c(=O)c2ccccc2n(CC(=O)NCCc2ccc(OC)c(OC)c2)c1=O	-19	i	0	19	2	-2	1	/
CCn1c(/C=C/c2ccc(O)cc2)nc2ccccc2c1=O	2	i	10	19	1	-8	-5	-21

Retrieved by structure from the entries so far, seven records:
SMILES	PABP FP inh	Rce1 inhib	CSC inhib	Env fusion inh	eIF4H FP inh	MT1-MMP act inh	MT1-MMP act inh RFP	UUG fidelity	others
Cc1cccnc1C(NC(=O)C1CCN(CCCOc2ccc(F)cc2)CC1)c1ccccc1 (stereo not given)	/	/	/	-5	/	-2	1	-12
Cc1cc(NC(=O)c2cnn3c(C(F)F)cc(C4CC4)nc23)no1	2	i	-2	/	-2	-4	3	-4
Cc1ccc(C)c(Oc2coc3cc(OCC(=O)Nc4ccccc4C(C)C)ccc3c2=O)c1	7	i	25	/	-7	/	/	/
CCCCc1c(C)nc2c(OC)cccc2c1SCCC(=O)O	16	i	-3	-12	-6	1	-1	/
CN1CCN(C(=S)Nc2cccc(Cl)c2)CC1	-12	i	-7	/	-2	1	4	/
CCn1c(/C=C/c2ccc(O)cc2)nc2ccccc2c1=O	2	i	10	19	1	-8	-5	-21
CN(C)CCCNc1nc2sc3c(c2c(=O)n1CCc1ccccc1)CCCCC3	-2	i	10	27	-7	-8	-8	/

Additional compounds:
SMILES	PABP FP inh	Rce1 inhib	CSC inhib	Env fusion inh	eIF4H FP inh	MT1-MMP act inh	MT1-MMP act inh RFP	UUG fidelity	others
CCN(CC)C(=O)CC(c1cc(OC)c(OC)c(OC)c1)c1c(OC)cc(OC)c2c(-c3ccccc3)cc(=O)oc12 (stereo not given)	46*	i	-4	25	103*	4	-7	-17	eIF4H FP inh retest=85*;PABP FP inh retest=55*
Cc1ccccc1C(=O)NC(=S)Nc1ccc(N2CCOCC2)cc1	-4	i	1	-23	-4	2	-2	-20
Cc1nc2ccccn2c1-c1ccnc(=S)[nH]1	11	i	/	2	-12	-1	6	/
COc1cccc(C(=O)NC(=S)Nc2ccc3c4c(cccc24)CC3)c1	9	i	-4	/	2	-9	-2	-12
CCOc1ccc2nc(-c3ccccc3)[nH]c2c1	-7	?	42	i	-7	6	-10	/
c1ccc(COc2ccc(-c3cc4nc(NCCN5CCOCC5)ccn4n3)cc2)cc1	/	/	/	-21	/	-2	-18	-20
COC(=O)c1c[nH]n2c(=O)cc(C)nc12	1	i	-7	/	-9	-2	0	-13
CCc1sc(NS(C)(=O)=O)nc1-c1ccccc1	-14	i	-16	-26	4	-6	3	-16
Cc1ccc(CN2C(=O)CCC2C(=O)NCCN2CCOCC2)cc1 (stereo not given)	5	i	1	/	-8	0	4	-14
Cc1nc2ccccc2c(=O)n1/N=C/c1cc(Br)ccc1O	12	i	1	1	8	5	-1	-15
COc1cc(Br)c(Br)c(Br)c1N	-2	i	-7	-1	0	-1	4	/
CC1(C)C(=O)Nc2ccccc2N1C(=O)COC(=O)Cc1ccc(Cl)c(Cl)c1	/	/	-4	/	/	1	5	4
CC1CCN(C(=O)C2CCCN(c3ncnc4c3nc3n4CCCCC3)C2)CC1 (stereo not given)	-3	i	1	1	1	2	-8	7
O=C(NCC1CCCO1)c1cccc(NS(=O)(=O)c2ccccc2)c1 (stereo not given)	/	i	/	-9	/	5	0	/
CN(Cc1ccc(Cl)cc1)C(=O)c1[nH]c(C(F)(F)F)nc1-c1ccccc1	/	/	/	-4	/	2	-1	3
N#Cc1ccccc1NC(=S)Nc1ccc(F)cc1	4	i	/	-11	-1	1	5	/
NS(=O)(=O)c1ccc(NC(=O)COC(=O)c2cn(-c3ccccc3)nc2-c2ccc(F)cc2)cc1	2	i	-6	-7	4	5	7	/
COc1ccccc1C(=O)NC(=S)Nc1ccc(NC(=O)c2ccco2)cc1	-4	i	8	3	-6	-4	-4	-38
Cc1cccc(CNC(=O)C2CCC(=O)N(C3CCCCCC3)C2)c1 (stereo not given)	5	i	6	5	-4	-1	2	5
C=CCN1C(=O)C(CC(=O)O)SC1=Nc1ccc(N=Nc2ccccc2)cc1 (stereo not given)	1	i	-4	-4	0	/	/	-4
COC(=O)/C(N=Nc1c(C)n(C)n(-c2ccccc2)c1=O)=C(\C)O	-7	/	-9	-65	3	-2	-1	/
CCOC(=O)[C@H]1[C@H]2COc3ccc(C)cc3[C@@H]2N2C(=O)c3ccc(C)cc3NC(=O)[C@@]12C	/	/	1	-2	/	-8	-2	-2
Cc1cc(C)cc(C(=O)NC(=S)Nc2ccc(-c3cc4ccccc4oc3=O)cc2)c1	-1	i	11	12	-4	2	4	-12
CC(C)(O)[C@@H]1CC(=O)[C@]2(C)[C@H](CC[C@@]3(C)[C@H](c4ccoc4)OC(=O)[C@H]4O[C@]432)[C@@]1(C)/C=C\C(=O)O	/	/	-15	-1	/	3	5	-2
O=C(NCCN1CCOCC1)c1ccccc1-c1ccccc1	4	i	-6	-65	-2	-2	1	-13
COCCNC(=O)c1ccccc1NC(=O)CN(c1ccc2c(c1)OCO2)S(C)(=O)=O	-2	i	2	-58	-3	-1	0	-3

An excerpt from above in order of formula weight, ascending:
SMILES	PABP FP inh	Rce1 inhib	CSC inhib	Env fusion inh	eIF4H FP inh	MT1-MMP act inh	MT1-MMP act inh RFP	UUG fidelity	others
CCOC(=O)[C@H]1[C@H]2COc3ccc(C)cc3[C@@H]2N2C(=O)c3ccc(C)cc3NC(=O)[C@@]12C	/	/	1	-2	/	-8	-2	-2
COCCNC(=O)c1ccccc1NC(=O)CN(c1ccc2c(c1)OCO2)S(C)(=O)=O	-2	i	2	-58	-3	-1	0	-3
CC(C)(O)[C@@H]1CC(=O)[C@]2(C)[C@H](CC[C@@]3(C)[C@H](c4ccoc4)OC(=O)[C@H]4O[C@]432)[C@@]1(C)/C=C\C(=O)O	/	/	-15	-1	/	3	5	-2
